From PubChem
HTT prom inh = Primary qHTS for Identification of Small Molecule Inhibitors of Huntingtin Promoter Activity; HEK293 HTT promoter firefly luciferase reporter (activity 0% = vehicle and -100% = no light), 24 h; Potency, µM (titrated, usually from 57.5 µM), for the others: at the highest dose activity change, negative = inhibition, most hits filed as inhibitors; actives 0.93% (n = 48,000); AID 1508623, 2021; active means well fitted inhibition curve with a large enough effect; inconclusive means small, poorly fitted or top-dose-only effect; inactive means no such curve, though single readings can be large or run the other way; further: nearly all actives have a fitted effect of over 50% in size
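Luminescence was read after Dual-Glo reagent and a 10 min room-temperature incubation. Values were normalized to vehicle (0% activity) and zero RLU (-100% activity). Reporter HEK293 cells had been exposed to compounds (up to 57.5 uM final) for 24 h.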
PMP22 txn = Cell-based coincidence reporter assay to measure PMP22 gene transcription in S16 Pmp22-F2sN cells - Primary screen | S16 Pmp22-F2sN Schwann cells (luciferase reporters placed in the Pmp22 gene), FLuc/NLuc coincidence luminescence, 24 h | Potency, µM (top dose mostly 57.5 µM), for inactives: top-dose activity change, negative = inhibition, usual class: inhibitors | actives 2% (n = 43,000) | AID 1508649, 2021; active = clear falling dose curves in both reporters; inconclusive = both reporters move, but less clearly or upward; inactive = either reporter flat; the % is the NLuc reporter signal; further: on the % scale 0 is the no-effect control and ±100 the full control effect; some results filed as inactive show a strong effect at the top dose
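Luminescent read-out of sequential FLuc and NLuc signals from a reporter embedded in the Pmp22 3' UTR of S16 Schwann cells, taken after 24 h compound exposure at 37C; compounds reducing both signals score as inhibitors of expression.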
* = called active by the depositor; ? = inconclusive; . = not tested or not shown; [ ] = another dose, or the depositor's remark. Potency means the concentration at half of the fitted maximal effect.

#	mol	HTT prom inh	PMP22 txn
1	O=C(O)C1CCCN(CCC=C(c2ccccc2)c2ccccc2)C1 (stereo not drawn)	-1%	.
2	Cc1ccc(-c2nc3nc(C)cc(N4CCN(c5cc(Cl)ccc5C)CC4)n3n2)cc1	-9%	-24%
3	CC(C(=O)NCc1ccccc1)N1Cc2ccccc2C1=O (stereo not drawn)	-12%	-2%
4	COc1ccc(-c2nc(SCC(=O)NCc3ccccc3Cl)n[nH]2)cc1	?	?
5	CN(C)c1ccc(CNC(=O)Cn2c(=O)oc3cc(S(=O)(=O)NCc4ccccc4)ccc32)cc1	?	-29%
6	CCOc1ccc(NC(=O)C2CCN(S(=O)(=O)c3c(C)noc3/C=C/c3cccs3)CC2)cc1	?	?
7	COc1ccc(CCNC(=O)c2cc3c(=O)[nH]c4ccc(C)cc4c3s2)cc1OC	-16%	?
8	COc1ccccc1CNC(=O)Cn1c(=O)oc2cc(S(=O)(=O)NCc3ccccc3)ccc21	?	?
9	COc1ccc(NC(=O)Cn2nc(-c3ccccc3)c3cnc4ccc(C)cc4c32)cc1	-7%	?
10	Cc1cc(C)c2oc(-c3cccc(NC(=O)c4cccc(F)c4)c3C)nc2c1	1%	-34%
11	COc1ccc(NC(=O)CC2C(=O)N(c3ccc(C)cc3)C(=O)N2Cc2ccc3c(c2)OCO3)cc1 (stereo not drawn)	-16%	3%
12	CCN1CCC(N(Cc2ccc(F)cc2)C(=O)Nc2cc(C)ccc2C)CC1	-10%	5%
13	CC(C)(C)OC(=O)N1CCC(c2c(C(=O)NCc3ccccc3)cnn2-c2ccccc2)CC1	-6%	-22%
14	CCC1=Nc2cc(C(=O)N3CCC(C)CC3)ccc2Sc2ccc(C)cc21	-12%	-26%
15	Cc1ccc(C)c(N2CCN(S(=O)(=O)c3ccc(C4CCCCC4)cc3)CC2)c1	-2%	-25%
16	COc1ccc(-c2nc3scc(CCNS(=O)(=O)c4ccc(NC(C)=O)cc4)n3n2)cc1	-24%	-46%
17	O=C1NC(=O)C(=Cc2ccc(-c3ccc(F)cc3O)o2)S1	10%	.
18	CC(C)Cn1c(=O)c2sccc2n2c(CCCC(=O)N3CCN(c4ccc(F)cc4)CC3)nnc12	-7%	-18%
19	CCCSc1nnc2c(n1)OC(c1cccs1)Nc1ccc(Br)cc1-2 (stereo not drawn)	-10%[11.5 µM]	1%
20	CCc1ccccc1NC(=O)CSc1nnc(COc2ccccc2Cl)o1	?	29%
21	CCCSc1ncc(Cl)c(C(=O)N(Cc2ccc(Cl)cc2)Cc2ccco2)n1	?	?
22	COc1ccc(CCNC(=O)CCc2c(C)nc3nc(C)nn3c2C)cc1OC	4%	-10%
23	Cc1ccc(NC(=O)N2CCc3c([nH]c4ccccc34)C2c2ccccc2F)c(Cl)c1 (stereo not drawn)	?	-6%
24	COc1ccc(-c2nc3cc(C)ccn3c2NC(=O)c2cccc(F)c2)cc1	14%	-8%
25	COc1ccc(NC(=O)CSC2=Nc3ccccc3C3=NC(CCC(=O)NCc4ccco4)C(=O)N23)cc1 (stereo not drawn)	-17%	-12%
26	Cc1cc(C)n2c(Nc3ccc4c(c3)OCCO4)c(-c3ccc(Cl)cc3)nc2n1	5%	5%
27	CN1CCN(C(c2ccc(F)cc2)c2sc3nc(-c4ccco4)nn3c2O)CC1 (stereo not drawn)	34%[activator]	2%
28	Cc1csc(-c2nnc(Nc3ccc(Oc4ncccc4-c4ccnc(N)n4)cc3)c3ccccc23)c1	-27%	.
29	COc1ccc(-c2nc(SCC(=O)NCCCc3ccccc3)n[nH]2)cc1	-28%	9%
30	Cc1ccc(N(CC(O)Cn2c3ccccc3c3ccccc32)S(=O)(=O)c2ccc(F)cc2)cc1 (stereo not drawn)	?	?
31	Cc1cc2nc(-c3cccc(NC(=O)COc4ccc(Cl)c(C)c4)c3)oc2cc1C	41%[activator]	?
32	C=C1C(=O)O[C@H]2[C@@H]1CCC(C)=CCC[C@@]1(C)O[C@@H]21	?	.
33	COC(=O)c1sc(N2C(=O)c3oc4ccc(C)cc4c(=O)c3C2c2ccc(O)c(OC)c2)nc1C (stereo not drawn)	-8%	-6%
34	CCOc1ccc(CNC(=O)CCS(=O)(=O)c2cc3c4c(c2)CCN4C(=O)CC3)cc1	-28%	8%
35	O=C(O)C1=CC(c2ccc(Br)cc2)n2ncnc2N1 (stereo not drawn)	-5%	4%
36	O=c1cc(-c2ccccc2)oc2ccccc12	39%[activator][116 µM]	.
37	COc1ccc(-c2c(C)c3cc(OC(=O)N4CCOCC4)ccc3oc2=O)cc1	-24%	0%
38	Cc1ccccc1NC(=O)CCOc1ccccc1	59%[activator]	3%
39	CCOC(=O)CSc1nc2ccc(NC(=O)COc3ccc(F)cc3)cc2s1	-4%	-3%
40	CCOc1ccc(-c2cc(NC(=O)c3ccccc3)c(C(=O)OC)s2)cc1	9%	-4%

A different layout for some results above.
The line under a structure holds: HTT prom inh | PMP22 txn
32	C=C1C(=O)O[C@H]2[C@@H]1CCC(C)=CCC[C@@]1(C)O[C@@H]21
    ? | .
33	COC(=O)c1sc(N2C(=O)c3oc4ccc(C)cc4c(=O)c3C2c2ccc(O)c(OC)c2)nc1C (stereo not drawn)
    -8% | -6%
34	CCOc1ccc(CNC(=O)CCS(=O)(=O)c2cc3c4c(c2)CCN4C(=O)CC3)cc1
    -28% | 8%
35	O=C(O)C1=CC(c2ccc(Br)cc2)n2ncnc2N1 (stereo not drawn)
    -5% | 4%
36	O=c1cc(-c2ccccc2)oc2ccccc12
    39%[activator][116 µM] | .
37	COc1ccc(-c2c(C)c3cc(OC(=O)N4CCOCC4)ccc3oc2=O)cc1
    -24% | 0%
38	Cc1ccccc1NC(=O)CCOc1ccccc1
    59%[activator] | 3%

(list continues)
#	mol	HTT prom inh	PMP22 txn
41	COc1ccccc1NC(=O)NCc1cccn1Cc1ccccc1	3%	5%
42	COc1cccc(CNC(=O)CN2C(=O)CSc3c2c(C)nn3-c2ccccc2)c1OC	?	-14%
43	Cc1cc(=O)n(Cc2cccc(Br)c2)c2c1c(C)nn2-c1ccccc1	2%	19%
44	Cc1cccc(N2CCN(C(=O)c3cc4c(=O)[nH]c5ccc(C)cc5c4s3)CC2C)c1 (stereo not drawn)	13µM*	-3%
45	Cc1c(F)cccc1NS(=O)(=O)c1cccs1	-18%	85%
46	COc1ccc(CNC(=O)c2cnn(-c3ccc(C)cc3)c2C2CCN(C(=O)OC(C)(C)C)CC2)cc1	?	?
47	COc1cccc(CNC(=O)CN2C(=O)N(c3ccc(C)cc3C)S(=O)(=O)c3ccccc32)c1OC	?	?
48	N#C/C(=C/c1ccc(O)cc1)c1nc(-c2ccc(-c3ccccc3)cc2)cs1	4%	?
49	CC(=O)c1ccc(N2CCN(S(=O)(=O)c3ccc4c(c3)CC(C)N4C(=O)C3CCC3)CC2)cc1 (stereo not drawn)	?	13µM*
50	CCOc1ccc(N(CC)C(=O)c2noc3c2COc2ccc(C)cc2-3)cc1	-20%	-29%
51	O=C(Nc1nc2c(s1)CCCCCC2)Nc1ccc(F)cc1F	48%[activator]	?
52	COc1ccccc1NC(=O)C1CCN(C(=O)c2sc3nc[nH]c(=O)c3c2C)CC1	1%	-11%
53	CC(C)(Oc1ccc(Cl)cc1)C(=O)Nc1nc2ccc(S(C)(=O)=O)cc2s1	-8%[11.5 µM]	-10%
54	CCOC(=O)c1c(S(=O)(=O)NCC(=O)NCc2ccccc2Cl)c(C)n(C)c1C	6%	-22%
55	Cc1ccc(Nc2c(-c3ccc(N4CCOCC4)cc3)nc3ncccn23)cc1	6%	-18%
56	CCCCN(CC)CCCNC(=O)CS(=O)(=O)Cc1nc(-c2ccc(C)cc2)oc1C	-12%	?
57	CCOc1ccc(CNC(=O)c2ccc3[nH]c(C)c(C)c3c2)cc1OC	-6%	-19%
58	CCOc1ccccc1NC(=O)N(Cc1ccc(F)cc1)C1CCN(CC)CC1	-9%	-10%
59	COc1ccc(OC)c(NS(=O)(=O)c2ccc3c(c2)C(C)(C)C(=O)N3C)c1	0%	14%
60	O=C(Nc1ccccc1F)C1CCN(S(=O)(=O)c2ccc3c(c2)CCCN3C(=O)C2CCC2)CC1	?	?
61	Cc1ccccc1CNC(=O)c1ccc(NC(=O)N2CCCCc3ccccc32)cc1	?	?
62	CCS(=O)(=O)N1CCc2cc(C(=O)NCc3ccc(Cl)cc3)ccc21	-29%	-66%
63	COc1ccccc1/C=C/c1nc(C#N)c(N2CCCCCC2)o1	-20%	-71%
64	Cc1cccc(NS(=O)(=O)c2ccc3c(c2)CCCN3C(=O)C2CCC2)c1C	?	?
65	Cc1nnc(N2C(=O)c3oc4ccccc4c(=O)c3C2c2ccc(Cl)cc2)s1 (stereo not drawn)	-16%	-2%
66	CCOc1ccc(-c2nnc(SCC(=O)Nc3ccccc3C(F)(F)F)o2)cc1	-29%	-7%
67	Cc1ccc(-n2nnc(-c3nsc(NC(=O)c4ccccc4C)n3)c2C)cc1Cl	-17%	?
68	O=C(Nc1ccc(Cl)c(-c2nc3cc(Cl)ccc3o2)c1)c1cc2ccccc2o1	0%	-23%
69	COc1ccc2nc(NC(=O)c3nc(SCc4ccccc4F)ncc3Cl)sc2c1	-10%	-1%
70	COc1ccccc1CNS(=O)(=O)c1ccc2c(c1)NC(=O)C(C)C(=O)N2 (stereo not drawn)	-18%	-21%
71	Cc1ccc(CCNC(=O)c2ccc3c(c2)N(Cc2cccc(F)c2)C(=O)c2ccccc2S3)cc1	-7%	-9%
72	CCOc1ccc(-n2nc(CO)c(C(=O)NCCCc3ccccc3)n2)cc1	-19%	-8%
73	O=C(NCC1CCN(Cc2cccc(Cl)c2)CC1)Nc1cc(Cl)ccc1Cl	?	?
74	COc1ccccc1NC(=O)CSCc1cc(=O)c2cccc(Cl)c2[nH]1	-16%	-9%
75	CSc1ncc(Cl)c(C(=O)Nc2ccc(NC(C)=O)cc2)n1	-4%	4%
76	Cc1ccc2cc3cc(C(=O)N4CCN(c5ccccc5)CC4)sc3nc2c1	13%	-13%
77	COc1ccc(C(c2c(O)cc(C)n(Cc3ccco3)c2=O)N2CCCCC2)cc1OC (stereo not drawn)	-4%	?
78	Cc1ccc(OCC(=O)Nc2ccc(OCc3cc(=O)n4ccsc4n3)cc2)cc1C	27%	-1%
79	CCOc1ccc(C2CC(=O)Nc3c2c(=O)[nH]c2ncnn32)cc1 (stereo not drawn)	-16%	11%
80	COc1cc(Cl)c(NC(=O)c2cc(S(=O)(=O)N3CCOCC3)cn2C)c(OC)c1	0%	-14%
81	O=C(COc1ccc(F)cc1)Nc1ccccc1C(=O)OCc1cc(=O)n2nc(C3CC3)sc2n1	-7%	-30%
82	N#Cc1ccc(C(=O)Nc2ccc(Cl)c(-c3nc4cc(Cl)ccc4o3)c2)c(F)c1	?	?
83	Cc1c(Cl)cccc1NC(=O)c1ccc2c(c1)CCN2S(=O)(=O)c1ccccc1	-18%	-19%
84	COC(=O)c1c(SC)nc2ccccc2c1OCc1ccc(Br)cc1	-23%	-15%
85	CCC1CN(C(=O)Nc2ccccc2C(F)(F)F)c2ccccc2S1 (stereo not drawn)	5%	-30%
86	Cc1ccc(NC(=O)/C=C/c2ccccc2Cl)cc1Cl	26%	-19%
87	O=C(COc1ccccc1)NCc1ccc2c(c1)CCN2C(=O)c1ccc(Cl)cc1	-15%	5%
88	COc1ccccc1C(=O)NC1(C(F)(F)F)C(=O)NC(C)=C1C#N (stereo not drawn)	-12%	-2%
89	Cc1cccc(CC(=O)N2CC(=O)Nc3ccc(Br)cc3C2c2ccc(F)cc2)c1 (stereo not drawn)	?	?
90	Cc1[nH]c2ccc(C(=O)Nc3ccc(F)cc3)cc2c1C	65%[activator]	?
91	O=c1n(Cc2ccccc2)nc2n1-c1cc(Cl)ccc1OC2	-2%	-9%
92	COc1cc(Cl)c(C)cc1Nc1nnc(-n2nc(C)cc2C)c2ccccc12	-7%	-8%
93	CCCOC(=O)CSc1ncnc2sc3c(c12)CCC(C)C3 (stereo not drawn)	54%[activator]	-23%
94	CCN(C(=O)c1cc2c(s1)-c1c(C)cccc1OC2)c1ccccc1F	-25%	?
95	COc1ccc(CCN2CCC(Nc3nc4ccccc4n3Cc3ccc(F)cc3)CC2)cc1	?	.
96	CCc1ccccc1NC(=O)c1ccc(F)c(S(=O)(=O)N2CCN(c3ccccc3OC)CC2)c1	?	?
97	O=C(CSc1nnc(-c2ccncc2)n1-c1ccccc1)Nc1ccc(Cl)c(Cl)c1	?	?
98	COc1cccc(-n2c(=O)c3sc4ccccc4c3n(CC(=O)NC3CCCCC3)c2=O)c1	23%	-9%
99	Cc1ccc(CNC(=O)c2cc(Sc3ccc(F)cc3F)nc3ccccc23)cc1	-20%	-28%
100	Cc1ccc(C(=O)CSc2nc3cc(C(=O)NC4CCCC4)ccc3c(=O)n2CC2CCCO2)c(C)c1 (stereo not drawn)	1%	?
101	Cc1cc(C)cc(OCc2cc(=O)n3cc(C)sc3n2)c1	-2%	-5%
102	Cc1cc(Cl)ccc1OCC(=O)N(Cc1ccco1)Cc1ccco1	-5%	-10%
